# Screens: PubChem, several laboratories
# CSC inhib – blocks cancer stem cells. inhibition, % at 7.5 µM. cancer stem cell-like cells viability, luminescence. AID 2717. 300,000 compounds, 1.1% hits;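 active = mean at 75% or more and at least half the replicates too; inconclusive = mean and replicates disagree; tested in HMLE shEcad cells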;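 also: 0% = median of negative and 100% = median of positive control wells; the first replicate is given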
# PABP FP inh – PABP-poly(A) binding inhibition; 290,000 compounds, 1% hits; PABP-poly(A) RNA binding, fluorescence polarization; AID 2014; P11940; inhibition, % at 35 µM;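 active = 50% or more with normal probe brightness, or confirmed in later tests; inconclusive = above 50% with abnormal brightness, or retests that disagree; inactive = below 50% or failed in later tests; about a fifth of its hits are not listed in these tables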;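 also: calls also rest on retests at 20 µM and on dose response follow-up; controls were probe without protein and protein plus probe with vehicle; some compounds called inactive have numbers as strong as hits; many hits fall short of the cut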
# Rce1 inh – yeast Ras-converting enzyme inhibition; Q03530; yeast membranes, quenched prenylated peptide cleavage fluorescence; calls only; 290,000 compounds, 0.27% hits; AID 2563;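 active = fall in fluorescence gain of 50% or more versus controls, with final raw signal at or below 3038400; inconclusive = same 50% fall but final raw signal above 3038400; inactive = fall in fluorescence gain under 50%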;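 also: plate controls were neutral control wells for no effect and wells lacking membranes for full effect; tested at 10 µM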
# Target sequence (Q03530 whole entry, looked up): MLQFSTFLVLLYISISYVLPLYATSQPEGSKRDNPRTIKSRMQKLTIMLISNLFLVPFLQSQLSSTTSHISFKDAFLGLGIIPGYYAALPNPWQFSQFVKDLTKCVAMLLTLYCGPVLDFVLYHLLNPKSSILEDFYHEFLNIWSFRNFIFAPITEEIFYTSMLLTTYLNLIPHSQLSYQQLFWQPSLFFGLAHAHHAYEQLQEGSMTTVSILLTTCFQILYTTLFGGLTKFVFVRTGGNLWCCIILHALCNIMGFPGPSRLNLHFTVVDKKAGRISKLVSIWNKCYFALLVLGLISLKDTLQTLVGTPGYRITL
# HIV Env fusion – HIV envelope-mediated fusion inhibition; HeLa-JRFL Env/CEM21 cell fusion, luciferase; 360,000 compounds, 1.1% hits; inhibition, % at 12.3 µM;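 active = mean replicate inhibition score of at least 50 and every replicate individually at or above 50; inconclusive = only one of the two criteria met; inactive = mean below 50 and not all replicates reaching 50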;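 also: 0% = plate neutral controls and 100% = maraviroc near 300 nM; one replicate is shown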
# MT1-MMP act inh – MT1-MMP (human) activation inhibition; HT1080 RFP-PRO-GFP cells, GFP/RFP ratio fluorescence, overnight; percent of plate control window, DMSO zero; AID 651647; 360,000 compounds, 0.061% hits; GFP/RFP ratio change, % at 20 µM;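 active = GFP/RFP ratio change of at least 30% with cell ATP level not reduced by more than half and red fluorescence within 50% of control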; also: strong numbers were not always called active
#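 Material – HT1080 RFP-PRO-GFP cells · Control set – DMSO wells and RFP-L50D-GFP cells · Incubation – overnight cell settling, then overnight compound exposure, 37 °C, 5% CO2 · Compound dosing – single-point 20 µM compound, 1% DMSO · Read-out – GFP/RFP fluorescence ratio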
# eIF4H inh – inhibitors of RNA binding by human eIF4H; Q15056; eIF4H fluorescence polarization binding assay; inhibition, % at 35 µM; 290,000 compounds, 0.94% hits;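 active = 50% or more with normal probe brightness, or confirmed in later tests; inconclusive = above 50% with abnormal brightness, or retests that disagree; inactive = below 50% or failed in later tests; about a fifth of its hits are not listed in these tables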;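 also: calls also rest on retests at 20 µM and on dose response follow-up; 0% = protein and probe with vehicle and 100% = probe without protein; strong numbers were not always called active; many hits fall short of the cut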
# UUG fidelity – modulators of start codon recognition fidelity in yeast; 350,000 compounds, 0.13% hits; AID 602363; S. cerevisiae UUG-firefly luciferase reporter, luminescence/redox ratio; activity score, % at 18.7 µM;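 active = replicate mean at a twofold rise or more, about +100% in these data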;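 also: firefly luciferase made from a UUG start codon reports start codon fidelity; reporter light over untreated wells divided by growth signal over untreated wells; some hits fall short of that in this replicate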
# MT1-MMP act inh RFP – also measured in MT1-MMP act inh; calls as there; RFP signal change, %; measured here: RFP expression control read;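 0 = vehicle wells; hits needed this value within 50% of zero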
# Active calls of the source: *; i = inactive; ? = inconclusive; . = not tested or not shown; & = joins results of further samples.
SMILES,CSC inhib,PABP FP inh,Rce1 inh,HIV Env fusion,MT1-MMP act inh,MT1-MMP act inh RFP,eIF4H inh,UUG fidelity
Cc1ccc(C)c(NC(=S)N(CCc2ccncc2)C(C)C)c1,-3,4,i,16,-2,0,-2,-16
CCc1nc(SCC(=O)NNC(=O)C(C)C)c2ccccc2n1,-11,4,i,-25,.,.,-2,-13
COc1ccc(CNC(=O)N2CCc3ccccc3C2)cc1,0,2,i,-23,-1,3,4,-12
CC(=O)CCc1oc2c([N+](=O)[O-])cccc2c1-c1ccc(C)o1,14,9,i,24,-5,-3,1,.
COc1cc2c(cc1OC)CN(C(=O)C(CCSC)NS(=O)(=O)c1ccc(C)cc1)CC2 (configuration not stated),-9,-12,i,10,-2,0,2,-9
CC(C)CNC(=O)NC(=O)COc1ncnc2sccc12,-6,3,i,-19,5,8,-4,-7
COc1ccccc1-c1sc2ccccc2c1-c1ccc2c(c1)OCO2,22,-5,i,-18,-4,-3,4,-12
COc1cccc(-c2cnc(C(O)c3cccc(CN4CCCCC4)c3)[nH]2)c1 (configuration not stated),.,.,.,-11,3,4,.,-28
Cc1ccc(-c2nn(C(C)(C)C)c3ncnc(N)c23)cc1,62,-8,.,.,-1,2,-2,-16
Cc1c(O)ccc(-c2n[nH]c(C(=O)O)c2-c2nc3ccccc3s2)c1O,0,5,i,4,-4,1,-8,-21
CCOC(=O)C1CCN(C(=O)CNC(=O)c2nn(-c3ccc(OC)c(Cl)c3)c(=O)c3ccccc23)CC1,20,15,i,-20,1,4,-10,1
FC(F)(F)c1ccc(Nc2nnnc3ccccc23)cc1,-11,-1,i,-17,3,-2,-13,.
CNc1nc2ccccc2n(C)c1=O,-13,-14,i,11,-3,-2,10,.
CC(C)N(CCO)C(=O)C(c1ccccc1)c1ccccc1,-14,-2,i,.,4,6,0,1
O=C(OCC(=O)N1CCOCC1)c1cc2ccccc2oc1=O,.,.,.,7,-1,1,.,-4
O=C(Nc1c(C(=O)NCc2ccco2)cnn1-c1ccccc1)c1cccc(F)c1,-21,-4,i,-44,7,4,4,-35
Cc1ccc(N2C(=O)N(CC(=O)Nc3cccc([N+](=O)[O-])c3C)C(=O)C2C)cc1 (configuration not stated),-9,.,i,.,2,-7,.,.
CC(C)c1ccccc1OCC(=O)Nc1ccc2[nH]ncc2c1,9,8,i,3,1,-4,-4,-14
CCC(C(=O)NC1CCCCC1)N(Cc1cccs1)C(=O)CCC(=O)Nc1cc(C)on1 (configuration not stated),-12,0,.,3,-1,-8,-10,-4
COc1cc(Cl)ccc1OCc1cc(C(=O)N(C)Cc2cn(C)nc2C)no1,-16,8,i,0,2,2,-2,-1

# Given bar-delimited: entries from further up.
SMILES | CSC inhib | PABP FP inh | Rce1 inh | HIV Env fusion | MT1-MMP act inh | MT1-MMP act inh RFP | eIF4H inh | UUG fidelity
Cc1ccc(N2C(=O)N(CC(=O)Nc3cccc([N+](=O)[O-])c3C)C(=O)C2C)cc1 (configuration not stated) | -9 | . | i | . | 2 | -7 | . | .
CC(C)c1ccccc1OCC(=O)Nc1ccc2[nH]ncc2c1 | 9 | 8 | i | 3 | 1 | -4 | -4 | -14
CCC(C(=O)NC1CCCCC1)N(Cc1cccs1)C(=O)CCC(=O)Nc1cc(C)on1 (configuration not stated) | -12 | 0 | . | 3 | -1 | -8 | -10 | -4

# Additional structures.
SMILES,CSC inhib,PABP FP inh,Rce1 inh,HIV Env fusion,MT1-MMP act inh,MT1-MMP act inh RFP,eIF4H inh,UUG fidelity
COC(=O)CN1C(=O)COc2ccc(Cl)cc21,-27,7,i,-3,-6,5,0,-18
CCOc1ccccc1NCc1nnc(-c2ccccc2)o1,-9,-8,i,9,1,-3,3,0
O=C(NCc1ccco1)C1CCN(c2nc3ccccc3n2Cc2ccccc2F)CC1,10,0,i,?,-1,0,-2,3
CCCC1(C(=O)OC)NC(c2ccc(OC)cc2OC)C2C(=O)N(c3cccc(C(C)=O)c3)C(=O)C21 (configuration not stated),-6,4,i,-1,-4,0,4,-8
CCOC(=O)c1ccc(NC(=O)C(CC)CC)cc1,7,-3,i,-90,2,1,-7,-23
O=C(CSc1nc(=O)n2ccccc2n1)NCc1ccc2c(c1)OCO2,-10,.,i,.,0,-3,.,.
OC(CN1CCN(Cc2ccccc2)CC1)c1ccc(F)cc1 (configuration not stated),-6,-2,i,-3,2,0,-14,.
COc1ccc(F)cc1CN1CCN(C(=O)c2ccc(S(=O)(=O)N3CCCCCC3)cc2)CC1,.,.,.,-3,-2,-8,.,-3
COc1cccc(CN2CCN(C(=O)c3ccc(-c4ccccc4)cc3)CC2)c1OC,11,2,.,-28,-3,-1,8,.
COc1ccc(-n2c(Cc3cccn3C)nnc2SCC(=O)NC2CCCC2)cc1,-18,-6,i,-11,1,3,6,-18
O=C(c1ccc(NS(=O)(=O)c2cccc3cccnc23)cc1)N1CCOCC1,-17,.,i,.,.,.,.,-6
O=C(NC(=S)Nc1nc2ccccc2s1)c1cccs1,.,-3,i,.,2,-2,3,-26
CCCCN(C)C(=O)c1sc(=O)n(CC(=O)c2ccccc2OC)c1C,.,.,.,-13,9,7,.,-14
CCn1cc(C(=O)O)c(=O)c2cc(F)c(N3CCN(C(=S)NC(=O)c4ccc(F)c(F)c4)CC3)cc21,-18,-2,i,7,-2,-8,1,.
COc1cccc(NC(=O)Nc2ccc(CC(=O)O)cc2)c1,.,-6,i,0,-1,2,-6,.
C=C1CCC[C@]2(C)C[C@H]3OC(=O)C(CN(C)CC(OC)OC)[C@H]3CC12 (some centres not stated),24,3,i,22,-9,-4,12,-9
Cc1ccc(-c2csc(NS(=O)(=O)c3cccc(F)c3)n2)o1,5,.,.,-3,-13,6,.,-24
O=C(NNC(=S)NCc1ccc(Cl)cc1)c1cccnc1,-1,-4,i,-5,2,2,-2,-16
COc1cccc(S(=O)(=O)N(C)C[C@@H]2Oc3ncc(C#CCN(C)C)cc3C(=O)N([C@H](C)CO)C[C@H]2C)c1,.,.,.,15,-2,3,.,5&0&0
O=C(NCCc1ccccc1)c1ccc(CS(=O)(=O)c2ccc(Cl)cc2)o1,-8,-5,i,1,2,-5,-1,.
O=C(COc1ccccc1)Nc1ccc([N+](=O)[O-])cc1,0,-6,i,0,-4,-1,-2,-4
CC(C)CCNC(=O)CN(CC1CCCO1)C(=O)CCC(=O)Nc1nccs1 (configuration not stated),-6,-4,i,.,1,9,-1,-11
COC(=O)c1ccc(NC(=O)Cn2nc(C(=O)Nc3ccc(C)cc3)ccc2=O)cc1,-13,12,i,-2,4,2,4,-19
Cc1ccc(C)c(NC(=O)CN2C(=O)NC(C)(c3ccc4c(c3)OCCO4)C2=O)c1 (configuration not stated),.,.,.,-31,0,-3,.,2
COc1cc(C)ccc1OCC(=O)Nc1nnc(C2CC2)s1,-11,.,.,-9,10,2,.,-16
CCCOc1ccccc1Cn1c(=O)oc2ccc(C)cc21,17,0,i,-26,-3,-2,2,-2
CCN(c1ccccc1)S(=O)(=O)c1ccc(OC)c(NC(=O)Cn2cnc3c2c(=O)n(C)c(=O)n3C)c1,-4,6,i,11,-2,-4,18,-14
CCNc1nc(NCC)n2c(SCC(=O)O)nnc2n1,3,9,i,.,-1,0,-3,-16
CC1N(C)c2cc(NC(=O)c3cccs3)c(P(=O)(Nc3ccc([N+](=O)[O-])cc3)N3CCOCC3)cc2C1(C)C (configuration not stated),6,-1,i,21,-15,-12,2,.
CC(C)CC(=O)Nc1ccc(S(=O)(=O)N2CCCC2)cc1,-6,-2,i,-2,-3,-2,-2,-3
Cc1ccc(-c2cc(C(F)F)n3ncc(C(=O)NN4CCCCC4)c3n2)cc1,-32,-3,i,4,1,0,-9,.
COc1ccccc1-c1oc2ccccc2c1C#CC1(O)CCCCC1,65,.,.,-21,0,-2,.,-4
CNc1ccccc(-c2ccc3cc4c(cc3n2)OCO4)c1=O,-10,-3,i,-22,-5,5,?,-20
COc1ccc(CN([C@H](C)CO)S(=O)(=O)N(Cc2ccccc2)[C@H](CO)C(C)C)cc1,-5,.,.,32,-5,-4,.,-3
CC(C)(C)n1nc2c(c1NC(=O)c1cc([N+](=O)[O-])ccc1Cl)CS(=O)(=O)C2,-14,.,i,5,-4,-2,.,-5
CCCCc1nnc(NC(=O)Cc2ccc(OC)c(S(=O)(=O)N3CCOCC3)c2)s1,-8,.,i,-7,2,2,.,.
O=C(COC(=O)Cc1ccc(F)cc1)NCCc1ccccc1,2,.,i,1,0,0,.,.
O=C(O)C1CSC2(c3ccc(Br)cc3)CCC(=O)N12 (configuration not stated),7,4,.,-15,2,4,-7,.
O=C(O)CCn1c(SCc2ccccc2)nc2ccccc21,1,-5,i,.,0,7,1,-10
O=c1[nH]c2cc(Cl)cc(Cl)c2[nH]c1=O,-6,5,i,-288,2,4,-6,-12
CN(CCc1ccccc1)C1CCCN(S(=O)(=O)N(C)C)C1 (configuration not stated),-1,14,i,12,2,3,-8,-20
O=C(C(=O)N1CCN(c2cccc(Cl)c2)CC1)N1CCCCC1,-8,1,i,17,-1,-1,0,2
O=C(NCc1ccco1)C1CC(O)CN1C(=O)Nc1ccccc1 (configuration not stated),-5,-2,i,6,-4,2,3,-36
O=C(NCCN1CCOCC1)/C(=C/c1ccccc1)NC(=O)c1ccccc1,-2,-2,i,-5,2,2,11,-8
Cc1ccc(-n2c(SCC(=O)NCC3CCCO3)nc3ccccc3c2=O)cc1 (configuration not stated),-9,.,.,.,-10,-3,.,-9
O=C(NCc1ccc(F)cc1)c1cc(-c2ccncc2)nc2ccccc12,-10,2,i,0,-4,-3,3,-21
CCCCCn1c(=O)[nH]c2cc(C(=O)O)ccc2c1=O,-12,24,i,-16,-3,4,6,18
CC(=O)N1CC(=O)N(OCc2ccccc2)C1c1ccc(Cl)cc1Cl (configuration not stated),-9,0,i,.,-2,2,2,.
CCOc1cccc(-c2c(C(=O)N/N=C/c3ccc(C)o3)nnn2-c2nonc2N)c1,-7,7,i,-20,0,0,-12,-8
O=C(COC(=O)C1COc2ccccc2O1)c1ccc(F)cc1 (configuration not stated),.,.,.,6,2,4,.,-9

# (cont.)
SMILES,CSC inhib,PABP FP inh,Rce1 inh,HIV Env fusion,MT1-MMP act inh,MT1-MMP act inh RFP,eIF4H inh,UUG fidelity
CC1CCN(C(=O)COC(=O)c2ccc(Cl)nc2)CC1,-3,.,.,.,2,4,.,-8
O=C(NCCc1ccccc1)c1ccc(NC(=O)C2CCCC2)cc1,.,.,.,-20,5,1,.,-10
CC1(C(=O)Nc2ccc3c(c2)OCCO3)CCN1C(=O)Cc1cc(F)ccc1F (configuration not stated),.,.,.,7,-4,-3,.,1
COc1cccc(-c2nc(CS(=O)CC(=O)NCc3ccc(F)cc3)c(C)o2)c1 (configuration not stated),-10,8,i,8,-2,1,0,3
Cc1cc(Cl)ccc1OC(C)C(=O)OCC(=O)Nc1ccc2[nH]c(=O)[nH]c2c1 (configuration not stated),0,.,.,-3,2,-2,.,-15
CCc1nc(Nc2ccc(O)cc2)c2oc3ccccc3c2n1,21,-3,i,-8,1,-5,8,.
CC(C)COP(=O)(c1ccc(N(C)C)cc1)C(Nc1ccccc1)c1cccnc1 (configuration not stated),9,-12,i,17,-8,-3,-2,-27
CC(C)C1C(c2ccccc2)N(C)C(c2ccccc2)CC1(O)c1ccccc1 (configuration not stated),131*,-7,i,.,-32,-18,3,-3
CN1CCN/C1=C(/C(Cl)=C(Cl)Cl)[N+](=O)[O-],6,-10,i,7,-2,1,-9,.
CCOC(=O)c1ccc(NC(=O)Nc2ccon2)cc1,78*,5,i,-291,23,-5,0,.
O=C(CN1CCCCCCC1)N/N=C/c1ccccc1F,-7,2,i,.,1,4,-6,.

# Not all compounds are listed, so the mix of outcomes need not match the whole.
